PKD1 inh: PKD1 (human) kinase inhibition. Q15139. PKD1 kinase fluorescence polarization assay. inhibition, %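 (about 10 µM by stock and volumes)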. 200,000 compounds, 0.056% hits;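 active means inhibition of 50% or more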;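 further: controls were vehicle for no effect and a reference inhibitor for full effect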
INS promoter inh: TRM-6 insulin promoter activity inhibition; TRM-6 cells (human fetal islet line), insulin promoter-eGFP reporter, imaging; reporter expression induced with tamoxifen; inhibition, % at 2 µM; 130,000 compounds, 0.9% hits;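 active means inhibition above the mean plus 3 SD, with well images judged a real hit on visual review, cut at about 60% in these data, passing the limit was not always enough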
RGS16-Gao HTS: regulators of human RGS16-Galphao interaction; O15492+P09471; bead-based flow cytometry RGS16-Galphao binding, fluorescence; actives lie on both sides; binding response (% of control), % at 10 µM; 220,000 compounds, 0.38% hits;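 active means below 25% or above 175%, edge rows of some plates excepted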;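 further: Galphao activated by GDP with aluminum fluoride before binding; 100% = wells without compound and 0% = beads without RGS; some results beyond the cut were filed as inactive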
Target sequence (O15492 whole entry, looked up): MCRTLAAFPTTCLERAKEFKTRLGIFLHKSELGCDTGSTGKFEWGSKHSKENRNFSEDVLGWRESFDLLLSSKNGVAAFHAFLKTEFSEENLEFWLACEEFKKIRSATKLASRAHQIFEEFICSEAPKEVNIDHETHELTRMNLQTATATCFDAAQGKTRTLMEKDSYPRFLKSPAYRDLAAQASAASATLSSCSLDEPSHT
Target sequence (P09471 whole entry, looked up): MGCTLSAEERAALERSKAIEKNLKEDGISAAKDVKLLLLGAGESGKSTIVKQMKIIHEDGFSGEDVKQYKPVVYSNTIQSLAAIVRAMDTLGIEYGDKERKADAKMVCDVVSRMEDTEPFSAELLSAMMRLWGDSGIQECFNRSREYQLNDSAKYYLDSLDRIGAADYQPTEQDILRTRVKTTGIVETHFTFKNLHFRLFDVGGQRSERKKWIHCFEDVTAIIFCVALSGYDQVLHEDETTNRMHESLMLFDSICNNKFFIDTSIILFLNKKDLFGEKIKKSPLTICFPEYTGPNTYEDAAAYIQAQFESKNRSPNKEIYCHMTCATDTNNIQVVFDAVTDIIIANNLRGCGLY
GALR2 agonist: GALR2 (human) receptor agonism | O43603 | GALR2-expressing cells, agonist activation read-out | activation, %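 (tested at 5 µM)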 | 140,000 compounds, 0.48% hits | AID 803;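 active means above mean plus 3 SD of all compounds, about 5% in these data, not always enough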;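 further: 0% = vehicle buffer wells and 100% = reference agonist at full effect; tested in CHO reporter cells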
Target sequence (O43603 whole entry, looked up): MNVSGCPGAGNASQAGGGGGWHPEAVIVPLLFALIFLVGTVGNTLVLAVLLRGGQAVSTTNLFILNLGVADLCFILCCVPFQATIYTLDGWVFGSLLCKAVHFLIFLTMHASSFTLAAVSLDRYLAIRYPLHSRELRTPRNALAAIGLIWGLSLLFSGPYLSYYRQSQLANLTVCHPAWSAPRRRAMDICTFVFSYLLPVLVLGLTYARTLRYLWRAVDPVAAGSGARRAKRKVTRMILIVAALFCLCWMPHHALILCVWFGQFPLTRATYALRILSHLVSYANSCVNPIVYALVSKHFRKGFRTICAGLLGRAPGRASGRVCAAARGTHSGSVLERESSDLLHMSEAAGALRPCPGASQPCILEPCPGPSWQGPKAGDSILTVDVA
HSV replic up: HSV replication enhancement; HSV replication augmentation in cells, fold increase; maximum fold increase; 220,000 compounds, 0.005% hits;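 active means peak rise of 1.5-fold or more in the series; tested in PC3 cells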;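 further: first round at 10 µM; read as green reporter fluorescence; hits show the peak of a series up to 25 µM; 1 = signal of infected wells without compound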
INS promoter inh cell count: recorded beside INS promoter inh, whose call it bears; normalized cell count, %; measured here: cell count, toxicity; reference of the scale not given here;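 cells exposed to compound for 48 h; stained nuclei by imaging scaled within each plate; lower means fewer cells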
HSV replic up primary fold: second read-out of HSV replic up, no call of its own (marks repeat the call); fold increase; compound at 10 µM; measured here: primary screen fold increase 10 uM; tested in PC3 cells;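 GFP signal in the first replicate; 1 = infected wells without compound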
Active calls of the source: *; i = inactive; nt = not tested or not shown.

SMILES	PKD1 inh	INS promoter inh	INS promoter inh cell count	RGS16-Gao HTS	GALR2 agonist	HSV replic up	HSV replic up primary fold
Cn1ccnc1SCC(=O)c1ccc(Br)cc1	-4.1	nt	nt	101.3	-2.1	i	1.04
CN1C(=O)CC(N2CCN(c3ccccn3)CC2)C1=O (stereo not given)	-5.0	-9.4	90.2	114.8	-1.7	i	1.01
CCOC(=O)c1c(NC(=O)COC(=O)CNC(=O)c2ccco2)sc(C(C)=O)c1C	-15.4	5.3	166.3	103.3	-0.2	i	0.98
COc1ccc(-c2nc(-c3cccc(C)c3)nc(N3CCN(C)CC3)c2C#N)cc1	12.1	nt	nt	99.1	0.4	i	0.92
COc1ccccc1NC(=O)CSc1nc2c(sc3ccccc32)c(=O)n1CCN(C)C	-3.0	-46.7	80.7	89.7	nt	i	0.84
COc1ccc2c(c1)sc(=N)n2C	1.5	-15.4	100.8	102.8	nt	i	0.87
CN1CCN(CCCN(Cc2cccs2)C(=S)Nc2ccc(Cl)cc2)CC1	-1.4	nt	nt	103.0	nt	i	0.91
COc1ccccc1OCC(=O)NNC(=O)c1cnccn1	-6.2	nt	nt	128.8	-2.8	nt	nt
C/C(=N\N1CCN(C)CC1)c1ccc(Cl)c(Cl)c1	0.7	nt	nt	104.3	nt	i	1.06
Cc1nc(CNS(=O)(=O)c2ccc3c(c2)OCCO3)cs1	0.2	-11.4	126.4	109.5	-0.6	i	0.88
CCCNC(=O)COC(=O)/C=C/c1ccco1	-9.0	20.0	146.3	100.1	-1.5	i	1.14
COc1ccc(C(=O)Nc2cc(C)c3c(=O)oc4ccccc4c3n2)cc1	-4.1	nt	nt	105.0	-2.2	i	1.02
COc1cc(C2CC(=O)N3CN(Cc4ccccc4)CSC3=C2C#N)ccc1OCc1ccccc1 (stereo not given)	7.7	nt	nt	87.6	-0.7	i	0.87
COc1ccc(C(=O)Nc2nc3ccc(S(C)(=O)=O)cc3s2)cc1OC	0.4	nt	nt	100.6	nt	i	0.91
Cn1c(=O)oc2cc(S(=O)(=O)NCCN3CCN(c4ccccc4F)CC3)ccc21	-11.2	nt	nt	107.5	-2.0	i	0.96
CCC(C)n1c(SCC(=O)Nc2ccccc2C(F)(F)F)nc2ccsc2c1=O (stereo not given)	-8.0	7.9	81.4	100.3	-1.1	i	0.83
O=C(CSc1ncnc2nc[nH]c12)Nc1nnc(SCc2ccc(Cl)c(Cl)c2)s1	0.7	nt	nt	103.2	nt	i	0.99
COc1ccc(Cl)cc1NC(=O)Cn1c(=O)n2nc(C)nc2c2ccccc21	-16.9	nt	nt	77.4	-1.2	i	1.07
Cc1ccc(S(=O)(=O)Oc2ccc(N3C(=O)C4C5CCC(C5)C4C3=O)cc2)cc1 (stereo not given)	-5.1	5.0	96.3	86.8	nt	i	0.98
CC1CCCN(C(=O)CCc2ccccc2)C1 (stereo not given)	-4.9	29.6	141.1	96.7	0.4	i	0.93
COc1ccccc1-n1c(CNC(=O)c2cccc([N+](=O)[O-])c2C)n[nH]c1=S	-2.5	-20.0	68.4	93.2	nt	i	0.92
Clc1ccc(-c2nc(-c3cnccn3)no2)cc1	nt	nt	nt	102.9	nt	i	0.93
Cc1ccc(S(=O)(=O)N2CCSC2)cc1C	-5.4	-18.9	125.0	104.8	-1.4	i	0.79
CCOc1ccccc1NC(=O)COC(=O)/C=C/c1ccc(OC)c(OC)c1	9.9	-40.7	95.9	95.7	nt	i	0.92
Brc1ccc2oc(-c3ccn[nH]3)cc2c1	nt	nt	nt	99.9	nt	i	1.01

Entries of single compounds as entered above. Order of screens: PKD1 inh, INS promoter inh, INS promoter inh cell count, RGS16-Gao HTS, GALR2 agonist, HSV replic up, HSV replic up primary fold
CN1C(=O)CC(N2CCN(c3ccccn3)CC2)C1=O (stereo not given) is listed as -5.0, -9.4, 90.2, 114.8, -1.7, i, 1.01
COc1ccc(-c2nc(-c3cccc(C)c3)nc(N3CCN(C)CC3)c2C#N)cc1 is listed as 12.1, nt, nt, 99.1, 0.4, i, 0.92
CCC(C)n1c(SCC(=O)Nc2ccccc2C(F)(F)F)nc2ccsc2c1=O (stereo not given) is listed as -8.0, 7.9, 81.4, 100.3, -1.1, i, 0.83
Cc1nc(CNS(=O)(=O)c2ccc3c(c2)OCCO3)cs1 is listed as 0.2, -11.4, 126.4, 109.5, -0.6, i, 0.88
O=C(CSc1ncnc2nc[nH]c12)Nc1nnc(SCc2ccc(Cl)c(Cl)c2)s1 is listed as 0.7, nt, nt, 103.2, nt, i, 0.99

(cont.)
SMILES	PKD1 inh	INS promoter inh	INS promoter inh cell count	RGS16-Gao HTS	GALR2 agonist	HSV replic up	HSV replic up primary fold
CC(C)(C)C(=O)NC(=S)Nc1ccccc1F	-5.2	29.0	132.4	99.6	-1.3	i	0.93
Cc1cccc(-n2c(C)cc(/C=N\NC(=O)c3cccs3)c2C)c1	-5.7	0.0	68.2	97.7	0.3	i	0.74
NC(=O)c1nc(-c2cccs2)nc2c1[nH]c(=O)n2-c1ccc(F)cc1	-3.0	-10.5	93.3	95.8	nt	i	1.07
Cc1cc(NC(=O)CSc2c3c(nc4ccccc24)CCC3)no1	-13.0	nt	nt	109.7	-2.6	nt	nt
Cc1sc2ncnc(OCC(=O)Nc3ccc4c(c3)OCCO4)c2c1C	-1.2	-5.4	81.7	104.7	-1.5	nt	nt
NS(=O)(=O)c1ccc(CCNC(=O)COC(=O)C2CCCN2C(=O)c2cccs2)cc1 (stereo not given)	1.7	nt	nt	106.4	-0.8	i	0.96
Cc1cc(C)c(NC(=O)CN2C(=O)NC(Cc3ccccc3)C2=O)c(C)c1 (stereo not given)	nt	nt	nt	99.1	nt	i	0.94
Cc1cccn2c(=O)c3cc(C(=O)NCc4ccco4)c(=N)n(CCc4ccccc4)c3nc12	nt	nt	nt	84.7	nt	i	0.77
Cc1cccc(C)c1NC(=S)Nc1ccc(Cl)c(Cl)c1	-4.2	nt	nt	91.2	nt	i	0.99
COc1ccc(-c2cc(C(F)F)n3ncc(C(=O)N4CCN5CCCC5C4)c3n2)cc1 (stereo not given)	-4.3	-8.3	99.0	99.6	-0.1	i	0.96
c1ccc(Nc2nnc(SCc3cccc4ccccc34)s2)cc1	-5.2	13.3	122.3	99.6	-1.2	i	0.96
Cc1ncc([N+](=O)[O-])n1CC(=O)N/N=C/c1ccc(F)cc1	4.8	-52.9	132.6	105.7	nt	i	0.99
CCOc1ccc(NC(=O)c2ccc(Br)o2)c([N+](=O)[O-])c1	-6.8	nt	nt	94.1	-1.8	i	0.88
c1ccc2c(c1)OCC(c1nnc3sc(-c4ccc5c(c4)OCO5)nn13)O2 (stereo not given)	-5.3	0.0	97.6	66.3	-2.1	i	0.93
CCOC(=O)Cc1cc(=O)n2[nH]c(C(C)(C)C)cc2n1	nt	nt	nt	96.4	nt	i	1.15
CCC(C)N1CC(C(=O)NC2CCCCC2)CC1=O (stereo not given)	-1.9	nt	nt	99.6	0.3	i	1.04
Cc1ccc(CC(=O)Nc2cccc(C)n2)cc1	-4.1	-34.9	163.3	101.0	-0.9	i	0.74
CCCCNC(=S)NNC(=O)c1csc(C)c1C	0.3	-33.3	45.7	62.9	-0.5	i	0.95
CCOc1ccccc1N1Cc2cc(C)c(C)cc2C1	-6.0	nt	nt	97.9	-1.1	i	1.07
CCOC(=O)c1c(C)oc2c1c1c(c3ccccc32)OCN(Cc2ccccn2)C1	-12.0	16.7	45.8	108.0	0.6	i	0.86
Cc1ccc(NC(=O)CN(C)CC(=O)Nc2c(C)cccc2C)c(Br)c1	-1.5	-9.3	96.8	96.7	-1.5	i	1.08
CCOC(=O)C1CCN(C(c2cccc(OC)c2)c2sc3nc(C)nn3c2O)CC1 (stereo not given)	-6.2	28.6	51.3	97.0	-1.6	i	1.01
N#CC(c1ccccc1)C1CCN(Cc2ccccc2)CC1 (stereo not given)	-3.0	27.3	90.1	103.7	-0.3	i	0.93
COCCNC(=S)N/N=C(\C)c1cccc(C(F)(F)F)c1	-3.7	-21.4	92.0	92.5	nt	i	0.77
Cc1ccc(S(=O)(=O)N2Cc3ccccc3CC2C(=O)Nc2cc(C)on2)cc1 (stereo not given)	-12.4	6.1	75.3	104.4	-1.0	i	1

Other results
SMILES	PKD1 inh	INS promoter inh	INS promoter inh cell count	RGS16-Gao HTS	GALR2 agonist	HSV replic up	HSV replic up primary fold
Cc1cccc(NC(=S)N(CCc2ccncc2)C(C)C)c1C	1.3	nt	nt	97.5	nt	i	1.05
COc1cc(C2CC(=O)c3cnc(N)nc3C2)cc(OC)c1OC (stereo not given)	-4.9	41.7	81.2	101.8	-3.0	i	0.8
CCn1c(=O)c(=O)[nH]c2cc(C(=O)NC3CCCC3)ccc21	-3.8	-27.8	115.8	98.5	nt	i	1.04
COc1ccccc1C1C2=C(N=c3s/c(=C/c4cccc(OCC(=O)O)c4)c(=O)n31)c1ccccc1CC2 (stereo not given)	-9.5	28.6	160.9	104.9	-1.9	i	1.09
CCOC(=O)c1sc(=S)n(C)c1N	-7.0	nt	nt	101.7	-0.1	i	1.03
Cc1cc(=O)oc(C)c1C(=O)N1CCN(C(c2ccccc2)c2ccccc2)CC1	-6.4	-62.5	96.5	100.9	0.9	i	0.98
COc1ccc(/C=N/n2c(SC)nnc(C(C)(C)C)c2=O)c(OC)c1	-4.6	-46.1	61.5	100.7	2.0	i	0.95
COC(=O)C(C)NC(=O)CNS(=O)(=O)c1ccc(F)cc1 (stereo not given)	0.1	nt	nt	99.8	nt	i	1.01
O=C(C1CC(=O)N(C2CCCCC2)C1)N1CCc2ccccc21 (stereo not given)	-4.0	-62.5	90.9	102.0	nt	i	0.98
CCCNC(=O)NC(=O)COc1ccc2oc3ccccc3c2c1	3.7	56.8	57.4	115.8	-2.3	i	0.93
COc1ccccc1N1CCN(Cc2nc(N)nc(Nc3ccc(C)cc3)n2)CC1	-7.5	0.0	73.9	101.1	-0.5	i	0.93
COc1ccc(C(=O)O)cc1Nc1cc(C)nc2ncnn12	-3.6	nt	nt	99.3	-0.2	i	0.88
C/C(=C\C(=O)c1sccc1Cl)N(C)C	-3.4	nt	nt	103.1	nt	i	0.98
Cc1nn2cc(-c3cccc(Cl)c3)cnc2c1Br	-3.3	-5.0	56.2	98.5	nt	i	0.83
COc1nsnc1N1CCOCC1	-2.1	nt	nt	102.1	nt	i	1.02
Clc1ccc(-c2c(C3=NCCCN3)nnn2-c2ccc(Cl)cc2)cc1	nt	nt	nt	100.9	nt	i	0.85
NC(=O)c1cc([N+](=O)[O-])ccc1NCCN1C(=O)c2ccc(C(=O)O)cc2C1=O	-1.9	nt	nt	99.5	nt	i	0.89
c1ccc(SCc2cn3cccnc3n2)nc1	0.8	nt	nt	100.5	nt	i	1.03
O=S(=O)(c1ccc(F)cc1)c1snnc1-c1ccccc1	-3.3	nt	nt	97.9	nt	i	0.67
O=S(=O)(Nc1cccnc1)c1cc(Cl)ccc1Cl	-4.5	43.2	74.3	106.0	-0.5	i	0.95
Cc1cc(C)cc(-n2nnc(C(=O)NCc3ccco3)c2N)c1	-18.5	16.1	81.6	114.4	-4.6	i	0.85
CSc1nc(N)n(-c2cc(C(F)(F)F)ccn2)n1	nt	nt	nt	103.9	nt	i	0.97
O=[N+]([O-])c1ccc2c(c1)C(N1CCOCC1)/C(=C/COc1ccc(Cl)cc1Cl)O2 (stereo not given)	-7.8	50.0	66.8	99.4	-3.4	i	1.04
Cc1cc(C)c(C(=O)/C=C/C=C/c2ccccc2)c(=O)[nH]1	-1.9	36.7	115.1	103.0	0.6	i	0.72
Cc1ccc(-n2c(SCC(=O)N/N=C/c3ccccc3C(=O)O)nnc2-c2ccc(Cl)cc2)cc1	nt	nt	nt	96.2	nt	i	0.84

(further entries)
SMILES	PKD1 inh	INS promoter inh	INS promoter inh cell count	RGS16-Gao HTS	GALR2 agonist	HSV replic up	HSV replic up primary fold
CCOc1ccc2nc(SCC(=O)Nc3cccc(S(=O)(=O)NC4=NCCCCC4)c3)[nH]c2c1	-0.4	nt	nt	101.0	nt	i	0.83
Cc1cc(=O)oc(C)c1C(=O)NCCN(C)Cc1ccccc1	-5.6	nt	nt	99.0	nt	i	1.11
COC(=O)[C@@H](NC(=O)CCc1nnc(-c2ccsc2)o1)C(C)C	-2.2	46.7	94.3	111.2	nt	i	1.02
CS(=O)(=O)N1CCC(C(=O)N2CCC(Cc3ccccc3)CC2)CC1	-8.0	-23.1	133.2	104.7	-1.7	i	0.83
O=C(CCc1ccccc1)Nc1ccc(N2CCCCC2)cc1	-3.7	16.7	137.6	98.3	-0.8	i	0.86
COc1ccc(CNC(=O)COC(=O)c2cncc(Br)c2)cc1	1.3	18.2	67.9	95.8	nt	i	1.11
O=C(Nc1ccccc1C(=O)Nc1ccccn1)c1ccc([N+](=O)[O-])cc1	-3.5	nt	nt	96.9	nt	i	0.86
O=C(Nc1cc(F)cc(F)c1)c1sc(Cl)nc1-c1ccccc1	-2.2	-25.0	125.4	100.4	-1.2	i	0.99
O=C(N/N=C/c1cn(-c2ccccc2)nc1-c1ccc(F)cc1)c1ccc(Br)o1	1.8	nt	nt	104.3	-2.9	i	0.8

Screening data as filed in PubChem.
